Assay outcomes from PubChem.
Yeast UUG start: alters start codon recognition fidelity in yeast | activity score, % at 18.7 µM | hit rate 0.13% among 350,000 | S. cerevisiae UUG-firefly luciferase reporter, luminescence/redox ratio;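 active = replicate mean at a twofold rise or more, about +100% in these data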;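 note: firefly luciferase made from a UUG start codon reports start codon fidelity; reporter light over untreated wells divided by growth signal over untreated wells; some hits fall short of that in this replicate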
Env fusion inh: blocks HIV Env-driven cell-cell fusion. HeLa-JRFL Env/CEM21 cell fusion, luciferase. inhibition, % at 12.3 µM. hit rate 1.1% among 360,000;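 active = mean replicate inhibition score of at least 50 and every replicate individually at or above 50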;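 note: 0% = plate neutral controls and 100% = maraviroc near 300 nM; one replicate is shown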
Numbers without * were called inactive; [ ] = another dose, or the depositor's remark. These rows are one share of the data (hit frequency here may not be typical).

SMILES	Yeast UUG start	Env fusion inh
Cc1ccc(S(=O)(=O)N(C)C[C@H]2OCCCC[C@H](C)Oc3ccc(NC(=O)Nc4ccc(C(F)(F)F)cc4)cc3C(=O)N([C@@H](C)CO)C[C@@H]2C)cc1	-17.6	28.3[16.7 µM]
CCC(=O)N(C)C[C@@H]1Oc2ncc(Br)cc2C(=O)N([C@@H](C)CO)C[C@@H]1C	-11.0	9.3[16.7 µM]
C[C@H](CO)N1C[C@H](C)[C@H](CN(C)C(=O)c2ccc(F)cc2)Oc2cc(C3=CCCCC3)ccc2S1(=O)=O	11.7	-25.2[16.7 µM]
CNC[C@H]1OCCCC[C@H](C)Oc2ccc(NC(=O)c3ccccc3)cc2C(=O)N([C@@H](C)CO)C[C@@H]1C	13.2	6.4[16.7 µM]
C[C@H]1CN([C@@H](C)CO)C(=O)Cc2cc(NC(=O)Nc3cccc4ccccc34)ccc2O[C@@H]1CN(C)S(=O)(=O)c1cccs1	-7.8	14.8[16.7 µM]
C[C@@H]1CN([C@H](C)CO)C(=O)c2cccc(NC(=O)Nc3ccc4c(c3)OCO4)c2O[C@@H]1CN(C)Cc1ccc(C(=O)O)cc1	-0.8	-28.4[16.7 µM]
COCC#Cc1ccc2c(c1)O[C@H](CN(C)C)[C@@H](C)CN([C@@H](C)CO)S2(=O)=O	-1.0	-6.5[16.7 µM]
CCC(=O)Nc1ccc2c(c1)C(=O)N(C)C[C@H](OC)[C@@H](C)CN(CCc1ccccc1)[C@@H](C)CO2	-11.5	-12.5[16.7 µM]
C[C@H](CO)N1C[C@H](C)[C@@H](CN(C)C(=O)NC2CCCCC2)Oc2ccc(NC(=O)Cc3ccccc3)cc2CC1=O	1.8	7.1[16.7 µM]
C[C@H]1CN([C@@H](C)CO)S(=O)(=O)c2ccc(-c3ccc(C#N)cc3)cc2O[C@@H]1CN(C)C	-6.5	-7.8[16.7 µM]
COc1ccc(NC(=O)Nc2ccc3c(c2)OC[C@@H](C)NC[C@@H](C)[C@H](OC)CN(C)C3=O)cc1	6.4	-5.1[16.7 µM]
CC(C)C#Cc1ccc2c(c1)O[C@H](CN(C)S(C)(=O)=O)[C@H](C)CN([C@@H](C)CO)S2(=O)=O	15.8	-38.0[16.7 µM]
CCCC#Cc1ccc([C@@H]2[C@@H](C#N)N(C(=O)CN3CCOCC3)[C@H]2CO)cc1	-16.0	12.6[16.7 µM]
Cc1ccc(-c2cnc3c(c2)C(=O)N([C@H](C)CO)C[C@@H](C)[C@H](CN(C)Cc2ccccc2F)O3)cc1	-0.3	-3.4[16.7 µM]
O=C(C[C@@H]1CC[C@H](NC(=O)NC2CCCCC2)[C@@H](CO)O1)NCc1ccc(F)cc1	3.6	-18.1[16.7 µM]

The closing two compounds of the section before open the next one:
SMILES	Yeast UUG start	Env fusion inh
Cc1ccc(-c2cnc3c(c2)C(=O)N([C@H](C)CO)C[C@@H](C)[C@H](CN(C)Cc2ccccc2F)O3)cc1	-0.3	-3.4[16.7 µM]
O=C(C[C@@H]1CC[C@H](NC(=O)NC2CCCCC2)[C@@H](CO)O1)NCc1ccc(F)cc1	3.6	-18.1[16.7 µM]
C[C@@H]1CN([C@H](C)CO)C(=O)c2cc(/C=C/c3ccccc3)cnc2O[C@@H]1CN(C)C	0.4	-9.6[16.7 µM]
O=C(C[C@H]1C=C[C@@H](NC(=O)Cc2ccccn2)[C@@H](CO)O1)NCCCN1CCOCC1	4.2	10.6[16.7 µM]
COc1cccc(NC(=O)C[C@@H]2CC[C@@H]3[C@@H](COc4ccc(NC(=O)C5CC5)cc4C(=O)N3C)O2)c1	10.1	-4.9[16.7 µM]
Cc1noc(C)c1NC(=O)N(C)C[C@@H]1OCCCC[C@@H](C)Oc2ccc(NC(=O)Nc3ccccc3)cc2C(=O)N([C@@H](C)CO)C[C@@H]1C	-4.3	11.2[16.7 µM]
CO[C@@H]1CN(C)C(=O)c2ccc(NC(=O)NC(C)C)cc2OC[C@H](C)N(CC2CC2)C[C@@H]1C	-5.5	7.1[16.7 µM]
C[C@@H]1CN([C@H](C)CO)C(=O)c2cc(NC(=O)Nc3ccc(C(F)(F)F)cc3)ccc2O[C@@H](C)CCCCO[C@@H]1CN(C)C(=O)Nc1cccc2ccccc12	-14.8	-2.1[16.7 µM]
CNC[C@@H]1Oc2cc(C#Cc3ccncc3)ccc2S(=O)(=O)N([C@@H](C)CO)C[C@@H]1C	-5.0	8.7[16.7 µM]
Cc1ccc(S(=O)(=O)N(C)C[C@@H]2Oc3c(NC(=O)c4ccc(-c5nccs5)cc4)cccc3C(=O)N([C@H](C)CO)C[C@H]2C)cc1	6.3	-52.5[16.7 µM]
C[C@H](CO)N1C[C@H](C)[C@H](CN(C)C(=O)c2cccnc2)Oc2ncc(/C=C/c3ccccc3)cc2C1=O	-9.3	11.3[16.7 µM]
C[C@@H]1CCCCO[C@@H](CN(C)C(=O)Nc2ccc3c(c2)OCO3)[C@H](C)CN([C@H](C)CO)C(=O)c2cc(NC(=O)NC3CCCCC3)ccc2O1	-17.4	29.0[16.7 µM]
C[C@H](CO)N1C[C@H](C)[C@H](CN(C)C(=O)c2ccncc2)OCCCC[C@H](C)Oc2ccc(N(C)C)cc2C1=O	13.1	5.6[16.7 µM]
COc1ccc(S(=O)(=O)N(C)C[C@H]2Oc3cc(C#CC4CCCCC4)ccc3S(=O)(=O)N([C@@H](C)CO)C[C@H]2C)cc1	-22.8	16.8[16.7 µM]
CC(=O)N(C)C[C@@H]1Oc2cc(C#CC(C)(C)O)ccc2S(=O)(=O)N([C@H](C)CO)C[C@@H]1C	-5.6	-6.9[16.7 µM]
CC(C)(C)c1ccccc1NC(=O)Nc1nc(C(N)Cc2ccc(F)cc2)cs1 (stereo not given)	-11.7	-4.4
CN(C)CCCNC(=O)C[C@@H]1C=C[C@@H](NS(=O)(=O)c2ccccc2)[C@H](CO)O1	1.7	11.2[16.7 µM]
O=C(C[C@H]1CC[C@@H](NC(=O)Cc2ccccn2)[C@H](CO)O1)NCCc1ccccc1	5.0	6.7[16.7 µM]
C[C@H]1CN([C@@H](C)CO)S(=O)(=O)c2ccc(-c3cncnc3)cc2O[C@@H]1CN(C)C(=O)CN(C)C	1.1	-8.6[16.7 µM]
COC(=O)C[C@H]1C=C[C@@H](NS(=O)(=O)c2ccc(OC)cc2)[C@H](CO)O1	-21.1	4.3[16.7 µM]
C[C@@H]1CN([C@H](C)CO)S(=O)(=O)c2ccc(C#CCN(C)C)cc2O[C@H]1CN(C)Cc1ccccc1	-4.4	2.2[16.7 µM]
C[C@H]1CCCCO[C@H](CN(C)Cc2ccc(C(=O)O)cc2)[C@@H](C)CN([C@@H](C)CO)C(=O)c2cc(N(C)C)ccc2O1	14.2	-6.7[16.7 µM]
C[C@@H]1CN([C@H](C)CO)C(=O)c2cc(NC(=O)CCCN(C)C)ccc2O[C@@H](C)CCCCO[C@H]1CN(C)Cc1ccc2c(c1)OCO2	-6.0	0.1[16.7 µM]
CO[C@@H]1CN(C)C(=O)c2ccc(NC(=O)C3CC3)cc2OC[C@H](C)N(CC2CCOCC2)C[C@@H]1C	-2.6	35.3[16.7 µM]
C[C@@H]1CCCCO[C@@H](CN(C)Cc2ccccc2)[C@@H](C)CN([C@H](C)CO)C(=O)c2cc(NS(=O)(=O)c3cn(C)cn3)ccc2O1	-10.1	23.7[16.7 µM]
CCCC#Cc1ccc2c(c1)O[C@H](CN(C)C(=O)CC1CC1)[C@H](C)CN([C@H](C)CO)S2(=O)=O	6.5	31.4[16.7 µM]
Cc1noc(C)c1NC(=O)Nc1ccc2c(c1)C(=O)N([C@@H](C)CO)C[C@H](C)[C@@H](CN(C)S(=O)(=O)c1ccc(F)cc1)OCCCC[C@@H](C)O2	16.8	-10.3[16.7 µM]
COc1ccc(CNC(=O)C[C@@H]2C[C@@H]3c4cc(NC(=O)CC5CC5)ccc4O[C@@H]3[C@H](CO)O2)cc1	-23.5	-28.0[16.7 µM]
CO[C@H]1CN(C)C(=O)c2ccc(NC(C)=O)cc2OC[C@@H](C)N(Cc2cccc(F)c2)C[C@H]1C	20.9	-3.8[16.7 µM]
C[C@@H]1CN([C@H](C)CO)C(=O)Cc2cc(NC(=O)Nc3ccc4c(c3)OCO4)ccc2O[C@H]1CN(C)S(=O)(=O)c1cn(C)cn1	2.6	-8.2[16.7 µM]
CC(C)NC(=O)Nc1ccc2c(c1)CC(=O)N([C@H](C)CO)C[C@H](C)[C@@H](CN(C)S(=O)(=O)c1cccs1)O2	9.4	7.4[16.7 µM]
C[C@H](CO)N1C[C@H](C)[C@H](CN(C)S(=O)(=O)c2ccc(F)cc2)Oc2cc(C#Cc3ccncc3)ccc2S1(=O)=O	-12.4	10.0[16.7 µM]
C[C@@H]1CN([C@@H](C)CO)C(=O)c2cc(NC(=O)CCC(F)(F)F)ccc2O[C@H]1CN(C)C(=O)Nc1ccc2c(c1)OCO2	-1.9	-9.6[16.7 µM]
C[C@@H]1CN([C@@H](C)CO)C(=O)Cc2cc(NC(=O)CCN3CCOCC3)ccc2O[C@@H]1CN(C)Cc1ccccc1	1.9	-11.9[16.7 µM]
CN(C)CC(=O)N[C@@H]1CC[C@@H](CCn2cc(C3CCCC3)nn2)O[C@H]1CO	4.5	-8.9[16.7 µM]
C[C@@H]1CCCCO[C@@H](CN(C)Cc2ccccc2)[C@H](C)CN([C@H](C)CO)C(=O)c2cc(NC(=O)CCC(F)(F)F)ccc2O1	8.0	-31.7[16.7 µM]
O=C(C[C@@H]1C[C@@H]2c3cc(NC(=O)c4ccc5c(c4)OCO5)ccc3O[C@@H]2[C@H](CO)O1)NCC1CC1	-12.9	7.7[16.7 µM]
COc1ccc(NC(=O)N(C)C[C@@H]2Oc3ccc(NC(=O)NC4CCCCC4)cc3CC(=O)N([C@H](C)CO)C[C@@H]2C)cc1	9.9	4.1[16.7 µM]
COc1ccc(S(=O)(=O)Nc2cccc3c2O[C@@H](CN(C)Cc2ccc(C(=O)O)cc2)[C@H](C)CN([C@@H](C)CO)C3=O)cc1	7.2	20.3[16.7 µM]
COc1ccc(-c2cnc3c(c2)C(=O)N([C@H](C)CO)C[C@H](C)[C@H](CN(C)C(=O)C2CC2)O3)cc1	26.7	-17.4[16.7 µM]
COc1ccc(S(=O)(=O)Nc2ccc3c(c2)CC(=O)N([C@H](C)CO)C[C@@H](C)[C@@H](CN(C)C(=O)NC2CCCCC2)O3)cc1	5.4	-1.0[16.7 µM]
Cc1noc(C)c1S(=O)(=O)Nc1ccc2c(c1)C(=O)N([C@H](C)CO)C[C@@H](C)[C@H](CN(C)S(=O)(=O)c1cccs1)O2	5.9	1.9[16.7 µM]
COc1ccc(NC(=O)N(C)C[C@H]2OCCCC[C@H](C)Oc3ccc(NC(=O)NC(C)C)cc3C(=O)N([C@H](C)CO)C[C@@H]2C)cc1	10.2	14.1[16.7 µM]
COc1ccccc1NC(=O)N[C@@H]1C=C[C@H](CC(=O)NCc2ccc(Cl)c(Cl)c2)O[C@H]1CO	-5.7	12.6[16.7 µM]
C[C@@H]1CN([C@@H](C)CO)C(=O)c2cc(N(C)C)ccc2O[C@@H](C)CCCCO[C@@H]1CN(C)S(C)(=O)=O	-0.7	8.3[16.7 µM]
C[C@H](CO)N1C[C@H](C)[C@H](CN(C)Cc2ccc(Cl)c(Cl)c2)Oc2ccc(NS(=O)(=O)c3cccs3)cc2CC1=O	4.3	13.2[16.7 µM]
CC(=O)N(C)C[C@H]1Oc2cc(C#CCC3CCCC3)ccc2S(=O)(=O)N([C@@H](C)CO)C[C@H]1C	7.3	-14.1[16.7 µM]
C[C@@H]1CN([C@H](C)CO)C(=O)c2cc(NS(=O)(=O)c3cccs3)ccc2O[C@H]1CN(C)CC1CCCCC1	7.0	-9.4[16.7 µM]
C[C@@H]1CN([C@@H](C)CO)S(=O)(=O)c2ccc(Br)cc2O[C@@H]1CN(C)C	1.5	-0.6[16.7 µM]
C[C@H](CO)N1C[C@H](C)[C@H](CN(C)S(=O)(=O)c2ccc(Cl)cc2)Oc2c(NC(=O)c3cnccn3)cccc2C1=O	11.1	-2.7[16.7 µM]
C[C@H]1CN([C@@H](C)CO)C(=O)Cc2cc(NC(=O)Cn3cnnn3)ccc2O[C@@H]1CN(C)S(=O)(=O)c1ccc(Cl)cc1	-2.8	-4.6[16.7 µM]
COc1ccc(NC(=O)N(C)C[C@H]2OCCCC[C@@H](C)Oc3ccc(NC(=O)Nc4cccc5ccccc45)cc3C(=O)N([C@H](C)CO)C[C@@H]2C)cc1	14.4	-3.3[16.7 µM]
C[C@@H]1CCCCO[C@H](CN(C)C(=O)Nc2ccccc2)[C@@H](C)CN([C@H](C)CO)C(=O)c2cc(NC(=O)Cc3ccccc3)ccc2O1	10.5	-23.6[16.7 µM]
C[C@@H]1CCCCO[C@@H](CN(C)C(=O)CCC(F)(F)F)[C@H](C)CN([C@H](C)CO)C(=O)c2cc(NS(=O)(=O)c3cn(C)cn3)ccc2O1	-1.0	-11.8[16.7 µM]
C[C@H](CO)N1C[C@H](C)[C@@H](CN(C)C(=O)C2CCC2)Oc2cc(C#CC3CC3)ccc2S1(=O)=O	-0.4	22.3[16.7 µM]
C[C@@H]1CN([C@H](C)CO)C(=O)c2cc(NC(=O)c3ccncc3)ccc2O[C@H]1CN(C)C(=O)Nc1cccc2ccccc12	0.0	4.7[16.7 µM]

Copied from the results shown for reference:
SMILES	Yeast UUG start	Env fusion inh
C[C@@H]1CN([C@H](C)CO)C(=O)c2cc(NS(=O)(=O)c3cccs3)ccc2O[C@H]1CN(C)CC1CCCCC1	7.0	-9.4[16.7 µM]
C[C@@H]1CN([C@@H](C)CO)S(=O)(=O)c2ccc(Br)cc2O[C@@H]1CN(C)C	1.5	-0.6[16.7 µM]
C[C@H](CO)N1C[C@H](C)[C@H](CN(C)S(=O)(=O)c2ccc(Cl)cc2)Oc2c(NC(=O)c3cnccn3)cccc2C1=O	11.1	-2.7[16.7 µM]
C[C@H]1CN([C@@H](C)CO)C(=O)Cc2cc(NC(=O)Cn3cnnn3)ccc2O[C@@H]1CN(C)S(=O)(=O)c1ccc(Cl)cc1	-2.8	-4.6[16.7 µM]
